VDR inhibitor = inhibitors of human vitamin D receptor; P11473; VDR-SRC2-3 peptide fluorescence polarization, 2 h; Potency, µM, inactives show max response, negative = inhibition, hits mostly inhibitors; actives 0.93% (n = 400,000); active means well fitted inhibition curve with a large enough effect; inconclusive means small, poorly fitted or top-dose-only effect, or another doubt; inactive means no such curve, though single readings can be large or run the other way; further: series mostly up to about 120 µM
Target sequence (P11473 whole entry, looked up): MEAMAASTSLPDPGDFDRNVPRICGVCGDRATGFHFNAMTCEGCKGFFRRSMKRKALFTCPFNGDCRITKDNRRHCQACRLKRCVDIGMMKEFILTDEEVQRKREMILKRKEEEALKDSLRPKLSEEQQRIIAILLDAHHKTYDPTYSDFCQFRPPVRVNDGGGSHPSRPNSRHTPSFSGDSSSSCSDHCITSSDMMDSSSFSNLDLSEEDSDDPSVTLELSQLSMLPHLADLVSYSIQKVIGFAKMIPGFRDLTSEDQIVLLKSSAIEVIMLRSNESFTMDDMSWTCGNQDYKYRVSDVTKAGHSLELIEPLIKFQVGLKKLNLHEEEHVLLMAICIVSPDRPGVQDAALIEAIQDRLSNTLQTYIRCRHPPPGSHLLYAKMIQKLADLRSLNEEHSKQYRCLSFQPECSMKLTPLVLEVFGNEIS
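Fluorescence polarization assay of small-molecule disruption of VDR binding to coregulator peptide SRC2-3. Compounds and controls pin-transferred, then read after 2 h incubation at ambient room temperature.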
* marks the source's active call; other numbers are inactive results; ? = inconclusive; & = joins results of further samples; [ ] = another dose, or the depositor's remark. On the % scale 0 is the no-effect control and ±100 the full control effect; potency means the concentration at half of the fitted maximal effect. Not all compounds are listed, so the mix of outcomes need not match the whole.

VDR inhibitor | Compound
-5% | COc1ccc(/C=C/C(=O)Nc2sc(Cc3ccccc3)c(C)c2C(N)=O)cc1
0% | Cc1ccccc1-c1coc2cc(O)ccc2c1=O
-2% | O=C1C2CCCN2C(=O)N1CCCN1CCN(c2cccc(Br)c2)CC1 (stereo not given)
? | CCCc1cc(=O)[nH]c(SCc2nc(-c3ccccc3F)no2)n1
1% | CCOC(=O)c1nn(-c2c(C)n(C)n(-c3ccccc3)c2=O)cc1O
-11% | COc1cccc2cc(/C(C)=N/NC(=O)c3ccco3)oc12
17% | COc1cccc(Cn2c(CNC(=O)c3cc([N+](=O)[O-])ccc3Cl)nc3cccnc32)c1
-11% | CC(C)n1cc(/C=C2/SC(=O)N(CC(=O)N3CCCC3)C2=O)c2ccccc21
? | Cc1ccc(/C=N/N=C2\SCC(=O)N2CC2CC2)cc1
-3% | CC1CCCN(S(=O)(=O)c2ccc(S(=O)(=O)N3CCCC3)cc2)C1 (stereo not given)
-15% | COc1ccc(Oc2ncc3nc(-c4cc(F)cc(F)c4)c(=O)n(C4CC4)c3n2)cc1
-12% | CCOc1ccccc1Oc1cn[nH]c1-c1ccc(OC)cc1O
-9% | O=C(OCc1ccc([N+](=O)[O-])cc1)c1cc2ccccc2oc1=O
-1% | CCCC(=O)Nc1ccc(Cl)c(-c2nc3ncccc3o2)c1
-1% | COC(=O)[C@]1(C)N[C@H](CN(C)S(=O)(=O)c2ccc(-c3ccccc3)cc2)[C@@H]2C(=O)N(Cc3ccccc3)C(=O)[C@@H]21
-13% | Cn1c(N)c(N=O)c(=O)n(C)c1=O
10% | CCc1ccc(NC(=O)COn2nnc3ccc(S(=O)(=O)N(C)C)cc32)cc1
-2% | COc1cc(NC(=O)C2CCN(c3nnc(C)c4c(C)n(-c5ccccc5)nc34)CC2)cc(OC)c1
7% | CCC(=O)Nc1cccc(-c2cn3cccc(C)c3n2)c1
9% | CCOC(=O)c1cnc2ccc(OC)cc2c1Nc1ccc(OCc2ccccc2Cl)cc1
-15% | Cc1nn(CCN)c(C)c1Cl
-13% | CCOc1ccc(S(=O)(=O)N2CCN(S(=O)(=O)c3ccc(OCC)cc3)C(C)C2)cc1 (stereo not given)
-13% | COC(=O)c1ccc(CNC(=O)Cn2nnnc2CN(C)C(C)C)cc1
-7% | CCCCn1nc(C(=O)NCc2ccccc2CN2CCCC2)c2ccccc2c1=O
8% | Cc1cccc(NC(=O)c2ccc(NS(=O)(=O)c3cccc4cccnc34)cc2)c1
-27% | O=C(NCC1CC1)c1ccc(Oc2cc(Cl)cc(Cl)c2)o1
10% | OCCC1CN(Cc2ccc3c(c2)CCO3)CCN1Cc1ccc(F)cc1 (stereo not given)
-21% | O=C(NCCCN1CCCCCC1)c1ccc(CS(=O)(=O)Cc2ccccc2F)o1
12% | Cc1ccccc1Cn1ccc(NC(=O)c2nc3ncccn3n2)n1
-6% | CS(=O)(=O)N1CCC(C(=O)NCCc2ccccc2)CC1
-7%&-3%&3% | COc1ccc(C(Cl)=C(c2ccc(OC)cc2)c2ccc(OC)cc2)cc1
12% | Cc1ccc(S(=O)(=O)N2CCCCC2)cc1NC(=O)CNc1ccc(C(F)(F)F)cc1
9% | Cc1cccc(N(C(=O)c2csnn2)C(C(=O)NC2CCCCC2)c2ccccn2)c1C (stereo not given)
-3% | CCOc1ccc(Br)cc1C(=O)N/N=C/c1ccc([N+](=O)[O-])cc1
-7% | CCCCc1c(C)nc2ccc(OC)cc2c1SCCC(=O)O
7% | CCC(=O)Nc1ccc(S(=O)(=O)NCc2ccco2)cc1
-4% | CCOC(=O)N1CCN(c2c(NCc3ccc(Cl)cc3)c(=O)c2=O)CC1
18% | Cc1ccc(S(=O)(=O)N2CCCC2CNC(=O)C(=O)NCc2ccccn2)cc1 (stereo not given)
-3% | CC(=O)N1CCN(C(=O)c2cc(S(=O)(=O)N(C)Cc3ccccc3)ccc2Cl)CC1
39%[activator] | CCN(CC)C(=O)c1sc(N2C(=O)Nc3ccccc3N2O)c(C(=O)OC)c1C
8% | COc1cccc(C(C)NC(=O)C2CCCC2)c1 (stereo not given)
? | C/C(Cl)=C\Cn1c(O)c(N=NC(N)=S)c2cc(Br)ccc21
3% | CC(NC(=O)C1CC2CCCC(C1)C2=O)c1ccccc1 (stereo not given)
-12% | Cc1ccc(Nc2nc(NCC3CCCO3)nc(N)c2[N+](=O)[O-])cc1C (stereo not given)
0% | CN1CCN(CC(=O)N2N=C(c3cccs3)CC2c2ccco2)CC1 (stereo not given)

Some of these compounds in order of the VDR inhibitor value, largest number first:
structure	VDR inhibitor
Cc1ccc(S(=O)(=O)N2CCCCC2)cc1NC(=O)CNc1ccc(C(F)(F)F)cc1	12%
COc1cccc(C(C)NC(=O)C2CCCC2)c1 (stereo not given)	8%
CN1CCN(CC(=O)N2N=C(c3cccs3)CC2c2ccco2)CC1 (stereo not given)	0%

(continued)
VDR inhibitor | Compound
16% | CCn1nnc2cc(C(=O)N3CCC(C(=O)OC)CC3)ccc21
12% | CCn1c2c(c(=O)n3ncc(C(=O)N4CCN(c5ccc(Cl)cc5)CC4)c13)CN(Cc1ccc(OC)cc1)CC2
0% | C=CCSc1ncccc1C(=O)NCc1ccc(C)cc1
1% | CCc1ccccc1NC(=S)N1N=CCC1c1ccccc1 (stereo not given)
-19% | COCC(=O)OCC(=O)c1cc(C)n(-c2ccc(Br)cc2)c1C
0% | Cc1cc(C)n2c(SCc3ccccc3Cl)nnc2n1
-8% | O=C(NCc1ccc(Cl)cc1)c1cc2ccccn2n1
-7% | Cc1occc1-c1nnc(SCC(=O)NCCc2ccccc2)n1Cc1ccccc1
-18% | O=C(NCC1(N2CCCCC2)CCCCC1)c1cccc(NS(=O)(=O)c2ccccc2)c1
0% | COc1cc(CN2CCNC(=O)C2CC(=O)N2CCc3ccccc3C2)cc(OC)c1 (stereo not given)
-14% | O=C(O)CCc1cc(I)c(O)c(I)c1
-5% | CCN(CC)c1ccc(CC(=O)NC(C)Cc2ccccc2)cc1 (stereo not given)
-16% | O=c1c(Cc2ccc(Cl)cc2)c(O)ccn1Cc1ccncc1
0% | CC(OC(=O)c1cc(S(=O)(=O)N2CCOCC2)ccc1F)C(=O)NCc1ccc2c(c1)OCO2 (stereo not given)
-10% | COc1ccc(-c2nnc(SCC(=O)Nc3ccc(Cl)cc3)s2)cc1

Next section, overlapping the part above by 6 compounds.
VDR inhibitor | Compound
0% | COc1cc(CN2CCNC(=O)C2CC(=O)N2CCc3ccccc3C2)cc(OC)c1 (stereo not given)
-14% | O=C(O)CCc1cc(I)c(O)c(I)c1
-5% | CCN(CC)c1ccc(CC(=O)NC(C)Cc2ccccc2)cc1 (stereo not given)
-16% | O=c1c(Cc2ccc(Cl)cc2)c(O)ccn1Cc1ccncc1
0% | CC(OC(=O)c1cc(S(=O)(=O)N2CCOCC2)ccc1F)C(=O)NCc1ccc2c(c1)OCO2 (stereo not given)
-10% | COc1ccc(-c2nnc(SCC(=O)Nc3ccc(Cl)cc3)s2)cc1
-8% | Cc1cccn2cc(-c3cccc(S(=O)(=O)N4CCCCC4)c3)nc12
13% | Cc1cc(C)c(Cn2c3ccccc3c3cnn(CC(=O)NCCc4ccccc4)c(=O)c32)c(C)c1
1% | CCS(=O)(=O)N1CCc2cc(C(=O)NCc3ccccc3)ccc21
0% | Cc1c(C(=O)OCC(=O)N2CCCC2)cccc1[N+](=O)[O-]
4% | Cc1cc2c(cc1S(=O)(=O)N1CCN(c3ccc(Cl)cc3)CC1)OCCN2C
-12% | CCC(CC)NC(=O)C1CCN(S(=O)(=O)c2cccs2)CC1
-14% | CCOc1ccccc1CN1CCN(Cc2ccc(C)o2)CC1CCO (stereo not given)
-5% | Cc1nc(C(F)(F)F)c(C(=O)N/N=C(\N)c2cccnc2)s1
-13% | Cc1nc(Cc2ccc(OC(C)C)cc2)[nH]c(=O)c1CC(=O)O
10% | Cc1ccccc1-n1cc(CNC(=O)CCc2nnc(CCc3ccccc3)o2)cn1
3% | CCOc1ccc(N2C(=O)C3Sc4[nH]c(=O)sc4C(c4ccc(OC)c(OC)c4)C3C2=O)cc1 (stereo not given)
-16% | COC(=O)C1=C(C)N(C)C(=O)/C1=C\c1ccco1
? | Nc1nc(-c2ccc(-c3ccccc3)cc2)cs1
-6% | CC(C)NC(=O)C1CCN(C2CCN(Cc3cn[nH]c3-c3ccccc3)CC2)CC1
6% | CN(Cc1c(F)cccc1Cl)C(=O)C1=CC=CN2CCS(=O)(=O)N=C12
-17% | O=C(NC(=O)c1ccc(F)cc1)Nc1ccc(-c2cc(C(F)(F)F)nn2-c2ccccc2)cc1
13% | O=S(=O)(Cc1ccc(Cl)cc1)Nc1ccc2c(c1)OCO2
-11% | CN1CCC(N(C)S(=O)(=O)c2ccc(NC(=O)COc3ccc(F)cc3)cc2)CC1
5% | COc1cc(NC(=O)c2ccccc2)c(OC)cc1NC(=O)CSc1[nH]c(=O)cc(C)c1C#N
-5% | Cc1cccc(CSc2nc(-c3cccs3)ccc2C#N)c1
3% | CC(C)CNC(=O)c1cc2nc3c(c(C(F)(F)F)n2n1)CCc1ccccc1-3
-6% | O=[N+]([O-])c1ccc([C@H](O)[C@H](CO)N=Cc2ccccc2O)cc1
-23% | N#C/C(=C/c1ccc(C(=O)O)cc1)C(=O)NCc1ccccc1
-8% | Cc1ccccc1Cn1c(=O)n(CCCC(=O)NCc2ccco2)c(=O)c2ccccc21
12% | CCOc1ccc(C(=O)Nc2ccc(C(F)(F)F)n(C)c2=O)cc1
-22% | COc1ccc2oc(C(=O)N(Cc3ccco3)Cc3cccs3)c(C)c2c1
-17% | COc1ccc(-c2cc(C(=O)Nc3ccc(S(=O)(=O)Nc4onc(C)c4C)cc3)c3ccccc3n2)cc1OC
1% | O=C1Cn2c(nc3ccccc32)-c2ccccc2N1
-12% | CN1CCN(c2ccccc2NC(=O)c2ccccc2F)CC1
-10% | CCCNC(=S)N1CCC(C(=O)c2ccc(OC)cc2)CC1

Molecules above that contain a furan ring, fused or not:
VDR inhibitor | Compound
-11% | COc1cccc2cc(/C(C)=N/NC(=O)c3ccco3)oc12
-27% | O=C(NCC1CC1)c1ccc(Oc2cc(Cl)cc(Cl)c2)o1
-21% | O=C(NCCCN1CCCCCC1)c1ccc(CS(=O)(=O)Cc2ccccc2F)o1
7% | CCC(=O)Nc1ccc(S(=O)(=O)NCc2ccco2)cc1
0% | CN1CCN(CC(=O)N2N=C(c3cccs3)CC2c2ccco2)CC1 (stereo not given)
-7% | Cc1occc1-c1nnc(SCC(=O)NCCc2ccccc2)n1Cc1ccccc1
-14% | CCOc1ccccc1CN1CCN(Cc2ccc(C)o2)CC1CCO (stereo not given)
-16% | COC(=O)C1=C(C)N(C)C(=O)/C1=C\c1ccco1
-8% | Cc1ccccc1Cn1c(=O)n(CCCC(=O)NCc2ccco2)c(=O)c2ccccc21
-22% | COc1ccc2oc(C(=O)N(Cc3ccco3)Cc3cccs3)c(C)c2c1

Next records follow:
VDR inhibitor | Compound
-23% | CCCc1cc(=O)oc2cc(C)cc(OCC(=O)Nc3ccc(S(N)(=O)=O)cc3)c12
19% | CCN(C(=O)Cc1ccc(Br)cc1)C1CCCCC1
-3% | CC(=O)Nc1ccc(S(=O)(=O)N2CCC(c3nc4c(nnn4Cc4ccccc4Cl)c(=O)[nH]3)CC2)cc1
-3% | N#C/C(=C\c1ccccc1)C(=O)NC1CC1
-11% | COc1ccccc1NC(=O)C(C)N(C)CC(=O)Nc1cccc2ccccc12 (stereo not given)
-7% | CCOc1ccc(N(CC(=O)NC(C(C)C)C(C)C)S(=O)(=O)c2ccc(OC)c(OC)c2)cc1
-13% | CCCCOc1ccc(N2C(=O)CC(NCCc3ccc(S(N)(=O)=O)cc3)C2=O)cc1 (stereo not given)
8% | Cc1ccc(C)c(NC(=O)N2CCN(c3nnc(C)c4c(C)n(-c5ccccc5)nc34)CC2)c1
? | Cc1cc(C(=O)OCC(=O)NC(C)C)c2ccccc2n1
8% | COc1ccc(S(=O)(=O)N(CCc2ccccc2)CC(=O)Nc2cc(C)cc(C)c2)cc1OC
7% | O=C(COC(=O)COc1ccc(Cl)cc1Cl)NC1CCCCCC1
5% | COc1ccc(C(=O)N(c2ccc(C)cc2)S(=O)(=O)c2ccc(C)cc2)cc1
